From PubChem BioAssay
MenB inh = M. tuberculosis MenB inhibitors, primary screen, biochemical, absorbance | inhibition, %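 (about 12 µg/mL by stock and volumes)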 | 100,000 tested, 0.43% active | MenB enzyme assay, absorbance read-out; some hits fall short of the stated cut | AID 540299, 2011 | 1,4-dihydroxy-2-naphthoyl-CoA synthase (Mycobacterium tuberculosis (strain ATCC 25618 / …;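 active = mean of two replicates above 30%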;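 also: 0% = no compound and 100% = wells with inactive enzyme; the first replicate is given; strong numbers were not always called active; inactives centre near -10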
Target sequence (P9WNP5 whole entry, looked up): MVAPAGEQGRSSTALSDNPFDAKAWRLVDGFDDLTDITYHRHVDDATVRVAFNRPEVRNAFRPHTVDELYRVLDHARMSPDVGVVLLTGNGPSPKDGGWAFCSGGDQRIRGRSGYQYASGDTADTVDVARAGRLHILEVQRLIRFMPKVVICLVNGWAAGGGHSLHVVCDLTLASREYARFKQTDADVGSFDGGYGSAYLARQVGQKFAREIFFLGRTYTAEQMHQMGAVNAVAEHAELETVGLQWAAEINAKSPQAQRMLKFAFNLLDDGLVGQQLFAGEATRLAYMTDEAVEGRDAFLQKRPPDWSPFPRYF
PV pol inh = poliovirus RdRp elongation inhibitors, primary screen, biochemical, fluorescence polarization, total intensity; poliovirus polymerase elongation; stronger effect = lower value; % elongation, % (compound at 16.7 µg/mL); 150,000 tested, 0.66% active; in the data active = % elongation below about 90%; also: some results filed as inactive read as strong as hits
MbtI inh = MbtI salicylate synthase inhibitors, primary screen, biochemical, fluorescence intensity. inhibition, %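 (about 17 µg/mL by stock and volumes)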. P9WFX0. 100,000 tested, 0.89% active. AID 493033, 2011. purified MbtI enzyme, fluorescence intensity read-out;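 active = above 50% in both replicates, above 80% if mildly self-fluorescent; inactive = the rest, strongly fluorescent compounds included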;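 also: 0% = mean of negative and 100% = mean of positive controls; one replicate is shown; some compounds called inactive have numbers as strong as hits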
Target sequence (P9WFX0 whole entry, looked up): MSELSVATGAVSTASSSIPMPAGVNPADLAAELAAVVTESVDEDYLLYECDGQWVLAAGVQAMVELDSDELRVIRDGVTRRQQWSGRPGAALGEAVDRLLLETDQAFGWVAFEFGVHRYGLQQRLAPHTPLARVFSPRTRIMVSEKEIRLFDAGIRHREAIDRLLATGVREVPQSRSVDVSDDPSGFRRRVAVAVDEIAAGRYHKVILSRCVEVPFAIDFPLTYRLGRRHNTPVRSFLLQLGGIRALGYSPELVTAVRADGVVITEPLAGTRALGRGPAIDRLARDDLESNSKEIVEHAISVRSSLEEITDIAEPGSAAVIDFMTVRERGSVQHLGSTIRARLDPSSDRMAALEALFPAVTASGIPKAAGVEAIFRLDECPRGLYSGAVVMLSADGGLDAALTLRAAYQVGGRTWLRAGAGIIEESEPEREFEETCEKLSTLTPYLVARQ
PV pol inh intensity = second read-out of PV pol inh, no call of its own (marks repeat the call); % elongation; measured here: total intensity read-out; formula for this scale not given here;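 total fluorescence in place of polarization; lower means less elongation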
Starred values were filed as active, the others as inactive; / = no result given; & = joins results of further samples.

SMILES	MenB inh	PV pol inh	PV pol inh intensity	MbtI inh
CCN(c1ccccc1)c1nc2ccc(Cl)cc2n2cnnc12	-15	100	104	9
Cc1cc(C)c(C#N)c(SCC(O)CSc2ccc(Cl)cc2)n1 (stereo not drawn)	-9	101	105	-20
COc1ccc(-c2nc(NCCc3c[nH]c4cc(OC)ccc34)sc2C)cc1	-21	101	104	1
c1ccc(CCNc2nc(-c3cccnc3)cs2)cc1	-1	104	110	/
Nc1nc(NCc2cccc(Br)c2)nn1-c1ccccc1	-5	99	97	1
Cn1c(SCC(=O)c2ccc(CNC(=O)C(C)(C)C)s2)nnc1C1CC1	-12	103	102	-13
Cc1ccc(C(=O)OC2CC(n3ccc(NC(=O)c4ccccc4)nc3=O)OC2CO)cc1 (stereo not drawn)	-21	103	108	/
Cc1c[n+](CC(=O)c2ccccc2)c(C)cn1	9	99	106	4
Cc1ccc2onc(CC(=O)NCCC3=CCCCC3)c2c1	7	102	103	-11
CCOC(=O)N1CCC(NC(=O)c2ccc3c(c2)N(CC)CCS3)CC1	-15	101	96	30
CCCCCC(=O)Nc1cc(-c2nc3cc(C)cc(C)c3o2)ccc1C	-6	/	/	3
COc1ccc(C23CC4CC(CC(C4)C2)C3)cc1	7	102	108	/
Cc1nc(N)sc1-c1csc(Nc2cccc(Cl)c2)n1	-7	112	102	/
Cc1sc2ncnc(N3CCN(C)CC3)c2c1-c1ccccc1	-7	104	107	/
CC1=NN(c2ccccc2)C(=O)C1C (stereo not drawn)	-3	105	102	-5
CCC(C)NC(=O)c1ccc2c(c1)N(Cc1ccc(C)cc1)CCS2 (stereo not drawn)	-10	102	108	89
CCOc1ccc(NC(=O)c2ccc(NCC(=O)N3CCCCCC3)cc2)cc1	/	102	99	7
O=c1cc(O)c2cccc3c4ccccc4n1c23	-11	104	107	135
Fc1cccc(Nc2nnc(SCCN3CCCCC3)s2)c1	-12	99	95	15
O=C(CCc1ccccc1)NC1CCCCC1	6	101	103	12
CN1CCSc2ccc(C(=O)Nc3cccc(F)c3)cc21	1	101	103	-218
O=C(c1csc(-c2cccs2)n1)N1CCCN(S(=O)(=O)c2ccc(F)cc2)CC1	-23	103	99	-25
O=C(Sc1ncccn1)c1ccc(F)cc1	-38	97	97	62
CCCCc1ccc(NC(=S)NCCCN2CCOCC2)cc1	-21	100	95	18
O=C(NCc1ccc(F)cc1)N1CCSc2ncccc21	3	101	101	-93

Brought forward from above: 5 compounds; new compounds follow.
SMILES	MenB inh	PV pol inh	PV pol inh intensity	MbtI inh
CN1CCSc2ccc(C(=O)Nc3cccc(F)c3)cc21	1	101	103	-218
O=C(c1csc(-c2cccs2)n1)N1CCCN(S(=O)(=O)c2ccc(F)cc2)CC1	-23	103	99	-25
O=C(Sc1ncccn1)c1ccc(F)cc1	-38	97	97	62
CCCCc1ccc(NC(=S)NCCCN2CCOCC2)cc1	-21	100	95	18
O=C(NCc1ccc(F)cc1)N1CCSc2ncccc21	3	101	101	-93
CNC(=O)c1ccc(OCC(C)C)cc1	-1	101	104	-26
CCOC(=O)C1=C(C)N(C)C(=O)NC1c1ccccc1OC (stereo not drawn)	-11	102	103	3
COc1cccc(C(=O)Nc2cc(C)nn2-c2ccccc2)c1OC	/	101	106	-6
CCCNC(=O)CSc1nnc(-c2ccccc2)n1CC	-3	99	93	1
O=C(OCC(=O)N1CCC(Cc2ccccc2)CC1)c1cccnc1Cl	/	102	98	0
COC(CNc1ncnc2sc(-c3ccccc3)cc12)OC	-29	102	103	80*
Cc1cc2c(c(Sc3ccc(Cl)cc3)n1)C(=O)NC2=O	-16	104	101	-1
CC1CCC(N2CCN(c3ncccn3)CC2)C1 (stereo not drawn)	-8	98	102	80
O=c1c2cc(Cl)ccc2ncn1Cc1cc(=O)n2ccsc2n1	-18	100	109	-4
O=C(Cn1c(-c2ccco2)nc2ccccc21)Nc1ccccc1Cl	/	101	102	-3
COc1cccc(C(=O)N2CCN(c3ccccc3)CC2)c1	10	101	105	1
O=C(Cn1c(=O)c2cccn2c2cccnc21)NCCN1CCCCCC1	7	100	102	127
CNc1nc(-c2cn(CCC#N)c3ccccc23)cs1	8	97	111	2
CC1OP(=S)(C(Nc2ccccc2)c2ccccc2)OC1C (stereo not drawn)	-12	94	97	2
COC(=O)c1ccccc1NC(=S)NC(C)=O	4	100	103	7
C=CCn1c(-c2ccccc2)c[nH]c1=S	-17	103	103	-493
CCN1CCN(C(=O)c2cccc(S(=O)(=O)N(C)c3ccccc3)c2)CC1	-19	107	113	3
CC(C)(CO)NC(=O)C(Cc1ccccc1)N1C(=O)c2ccccc2C1=O (stereo not drawn)	12	102	101	-2
CCN(CC)S(=O)(=O)c1ccc(N(C)CCc2ccc(OC)c(OC)c2)nc1	3	102	99	-65
COc1ccc(-n2ncc3c(N(Cc4ccccc4)Cc4ccccc4)ncnc32)cc1	-24	105	104	4
CCN(c1ccccc1)S(=O)(=O)c1cc(OC)ccc1OC	3	100	101	1
CCCCC/C=C\C\C=C/C=C/C=C/[C@@H](SCC(NC(C)=O)C(=O)O)[C@@H](O)CCCC(=O)O (stereo partly drawn)	1	100&99	101&100	-7
Cc1ccc(N/C(=C\C(=O)c2ccccc2)C(=O)O)cc1	/	105	104	10
CCOC(=O)c1sc2sc(C(=O)OCC)c(-c3ccc(Cl)cc3)c2c1N	-20	105	110	3
CCc1ccc(Nc2nc3ccccc3nc2NS(=O)(=O)c2ccc(C)cc2)cc1	-7	101	105	-107

Part of the list above, set out differently:
> CNc1nc(-c2cn(CCC#N)c3ccccc23)cs1
  MenB inh = 8 | PV pol inh = 97 | PV pol inh intensity = 111 | MbtI inh = 2

> CC1OP(=S)(C(Nc2ccccc2)c2ccccc2)OC1C (stereo not drawn)
  MenB inh = -12 | PV pol inh = 94 | PV pol inh intensity = 97 | MbtI inh = 2

> COC(=O)c1ccccc1NC(=S)NC(C)=O
  MenB inh = 4 | PV pol inh = 100 | PV pol inh intensity = 103 | MbtI inh = 7

> C=CCn1c(-c2ccccc2)c[nH]c1=S
  MenB inh = -17 | PV pol inh = 103 | PV pol inh intensity = 103 | MbtI inh = -493

(list continues)
SMILES	MenB inh	PV pol inh	PV pol inh intensity	MbtI inh
NS(=O)(=O)c1ccc(CNC(=O)COC(=O)c2ccccn2)cc1	-10	102	106	-4
CC(C)CN(CC(C)C)S(=O)(=O)c1ccc(N)cc1	-12	97	100	-4
CC[C@H](C)[C@H](N)C(=O)N[C@@H](CC(N)=O)C(=O)N[C@@H](CC(C)C)C(=O)N[C@@H](CCCCN)C(=O)N[C@@H](C)C(=O)N[C@@H](CC(C)C)C(=O)N[C@@H](C)C(=O)N[C@@H](C)C(=O)N[C@@H](CC(C)C)C(=O)N[C@@H](C)C(=O)N[C@@H](CCCN)C(=O)N[C@@H](C)C(=O)N[C@@H](CC(C)C)C(=O)N[C@@H](CC(C)C)C(N)=O	-14	101	101	/
CCSc1cc(CC)c(C#N)c2nc3ccccc3n12	-19	99	101	-5
c1ccc(CNc2nc(-c3ccccc3)no2)cc1	-19	102	101	-14
O=C(COC(=O)c1ccccn1)Nc1cccc(Cl)c1	/	103	105	-12
NCCCc1ccc(Cl)cc1	20	101	103	3
Cc1sc2c(c1C)CN(Cc1ccco1)CN2C(=O)c1ccccc1	-8	104	110	-6
COc1ccc2c(=O)c(-c3ccc(F)cc3)coc2c1	/	103	103	-1
O=C(O)CCc1cn(CCC(=O)O)nc1-c1ccc(Cl)cc1	-9	101	106	-11
Cc1ccc2c(C)c(C(=O)N(Cc3ccco3)Cc3ccccc3Cl)oc2c1C	-7	105	109	51
O=C(NC1CCCC1)[C@H](CSCc1ccccc1)N1Cc2ccccc2C1=O	-12	103	104	-6
NCc1cn(-c2ccccc2)nc1-c1ccccc1	-20	104	108	-6
COC(=O)/C=C1/C(=O)N(C(C)=O)c2ccccc21	15	104	101	2
O=C1CN(C(=O)COC(=O)/C=C/c2ccco2)c2ccccc2N1	-10	100	109	1
O=C(O)CSCC(=O)c1ccccc1	8	102	103	8
COc1cc(C2NCCc3c2[nH]c2ccccc32)ccc1OC(C)C (stereo not drawn)	-7	106	108	/
CCOC(=O)c1ccoc1CSCc1ccc(C(=O)OC)o1	12	109	104	20
O=C(CSc1ncccn1)N1N=C(c2cccs2)CC1c1ccco1 (stereo not drawn)	2	107	115	-89
NS(=O)(=O)c1cc2c(cc1Cl)NC=NS2(=O)=O	-8&8	99&101	100&101	2&-16
CN1CCN(/C=N/c2nc3c(s2)CCCC3)CC1	15	101	107	11
CN(CC(=O)NCCc1ccc(S(N)(=O)=O)cc1)Cc1cccs1	-8	105	111	4
CCC(C)C(=O)Nc1ccc(OC)cc1 (stereo not drawn)	0	100	104	-21
Cc1ccc(C(C(=O)NC2CCCC2)N2CCC3(CC2)OCCO3)cc1 (stereo not drawn)	-29	102	102	-10
Cc1cccc(OCC(O)CN)c1 (stereo not drawn)	-18	102	100	-11
SMILES	MenB inh	PV pol inh	PV pol inh intensity	MbtI inh
OC(CNCc1ccc2c(c1)OCO2)COc1ccc(F)cc1 (stereo not drawn)	-10	100	105	-13
O=C1c2ccccc2C(=O)C1c1ccc(OC(F)F)cc1	-10	96	104	80*
O=C(O)c1ccc(CSc2nc(-c3ccccc3)cc(C(F)(F)F)n2)cc1	-2	103	104	1
O=C(Nc1ccc2c(c1)COC2=O)c1ccc(F)cc1	-14	105	107	/
COC(=O)c1cc(OC(=O)c2ccc(Cl)cc2)n(C(C)(C)C)n1	-23	97	102	10
C[C@@H](C(=O)NCCc1ccc(Cl)cc1)N1C(=O)C2CC=CCC2C1=O (stereo partly drawn)	-22	/	/	-4
CC(=O)Oc1cccc(/C=C2\N=C(c3ccccc3Br)OC2=O)c1	2	99	103	26
c1ccc2sc(NCC3CCCO3)nc2c1 (stereo not drawn)	/	101	100	-2
CN(C)S(=O)(=O)c1cccc(CSc2nc3ccccc3o2)c1	-21	103	122	-9
CN1CCC(N(C)C(=O)c2sc3cc(F)ccc3c2Cl)CC1	/	102	96	-1
CCc1c(C)c(C#N)c2nc3ccccc3n2c1N1CCN(Cc2cc(Cl)ccc2OC)CC1	-6	103	107	-19
CCCCC1(C)OC(=O)C(=Cc2ccc(Br)o2)C(=O)O1 (stereo not drawn)	-45	106	111	8
CC(C)(C)C(=O)CC#N	12	104	104	1
O=C1C=C(c2ccc(Br)cc2)OC(c2ccccc2)O1 (stereo not drawn)	-25	107	108	/
CC1=NN(S(=O)(=O)c2ccccc2)C(O)(C(F)(F)F)C1 (stereo not drawn)	-32	101	98	3
CCC(C)C(NC(=O)c1ccccc1)c1nc2ccccc2[nH]1 (stereo not drawn)	/	100	101	-9
O=C(O)c1ccc(-c2cccc(Cl)c2)o1	-52	103	102	73
O=C(/C=C/c1ccco1)NC(=S)Nc1ccc2ccccc2c1	-21	102	105	7
CCOc1ccccc1C(=O)NC1CCN(Cc2nnnn2C2CCCC2)CC1	-7	101	104	3
O=C(COC(=O)C1COc2ccccc2O1)Nc1ccc(S(=O)(=O)N2CCCCC2)cc1 (stereo not drawn)	-29	102	108	10
CC(C)(C)NC(=O)Cn1c(-c2nonc2N)nc2ccccc21	-21	102	109	/
CC1(C)CC(NC(=O)CC(c2ccc(F)cc2)c2ccco2)CCO1 (stereo not drawn)	-2	103	104	4
CN1CCCN(C(=O)C23CC4CC(C)(CC(C)(C4)C2)C3)CC1	-26	101	103	2
COC(=O)CNS(=O)(=O)Nc1ccc(-c2nc3ccc(C)cc3s2)cc1	-20	104	115	/
NC(=O)CSc1nc2ccccc2c(=O)n1Cc1ccco1	-2	103	104	0
SMILES	MenB inh	PV pol inh	PV pol inh intensity	MbtI inh
CCCN(CCC)S(=O)(=O)c1ccc(C(=O)Oc2c(C)cccc2OC)cc1	2	108	102	12
C/C=C/C(=O)Nc1cccc(C(F)(F)F)c1	-66	101	103	-3
Cc1cc(NC(=O)C2C3C(=O)N(CCC(C)C)C(C(=O)NC(C)(C)C)C34C=CC2(C)O4)no1 (stereo not drawn)	-13	103	100	-16
CCC(=O)N1CCc2cc(S(=O)(=O)NC(C(=O)Nc3ccc(OC)c(OC)c3)C(C)C)ccc21 (stereo not drawn)	-27	101	103	-7
COc1ccc(C(=O)/C=C/Nc2ccc(C(F)(F)F)cc2)cc1	-14	105	107	-5
CCN1C(=O)c2ccccc2S(=O)c2ccc(C(=O)N3CCC(C)CC3)cc21 (stereo not drawn)	-18	100	100	8
Cc1sc2nc(C)n(NC(N)=O)c(=O)c2c1C	-26	105	105	10
COc1ccc2c(Cl)c(C(N)=O)sc2c1	-16	103	107	/
Cc1onc(-c2ccccc2)c1C(=O)Nc1ccccc1N1CCOCC1	-14	103	105	-8
O=C(Nc1ccc2c(c1)OCO2)C1(c2ccc(Cl)cc2)CC1	-6	95	96	-1
O=C(/C=C/c1ccccc1)Nc1ccccc1N1CCN(c2ccccc2)CC1	-49	102	99	-1
CC1=NN(c2ccc(C(=O)O)cc2)C(=O)/C1=C\c1ccco1	-9	101	101	29
COC(=O)c1cnn(C(=O)c2ccc(OC)cc2)c1N	-11	100	103	-2
O=C(CSc1ncn[nH]1)NC12CC3CC(CC(C3)C1)C2	/	100	105	-7
O=C(CCC1CC(=O)OC1c1ccccc1)Nc1nccs1 (stereo not drawn)	-17	103	102	-6
COc1cccc(NC(=O)c2ccnc(N3CCC(C(=O)N4CCOCC4)CC3)c2)c1	3	100	104	-3
